Screening results (PubChem BioAssay)
HIV Env fusion: blocks HIV Env-driven cell-cell fusion | HeLa-JRFL Env/CEM21 cell fusion, luciferase | hit rate 1.1% among 360,000 | inhibition, % at 12.3 µM | AID 651610;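 active = mean replicate inhibition score of at least 50 and every replicate individually at or above 50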;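 note: 0% = plate neutral controls and 100% = maraviroc near 300 nM; one replicate is shown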
Yeast UUG start: alters start codon recognition fidelity in yeast. S. cerevisiae UUG-firefly luciferase reporter, luminescence/redox ratio. AID 602363. activity score, % at 18.7 µM. hit rate 0.13% among 350,000;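 active = replicate mean at a twofold rise or more, about +100% in these data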;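 note: firefly luciferase made from a UUG start codon reports start codon fidelity; reporter light over untreated wells divided by growth signal over untreated wells; some hits fall short of that in this replicate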
An asterisk follows results filed as active; [ ] = remark or other dose.

Molecule | HIV Env fusion | Yeast UUG start
C[C@@H](NC(=O)C[C@H]1CC[C@@H](NC(=O)Nc2ccc3c(c2)OCO3)[C@@H](CO)O1)c1ccccc1 | 16[16.7 µM] | -7
CN1C(=O)c2cc(NC(=O)c3ccc(F)c(F)c3)ccc2OC[C@H]2O[C@@H](CC(=O)N3CCCCC3)CC[C@@H]21 | -3[16.7 µM] | 23
CCNC(=O)C[C@@H]1CC[C@H]2[C@@H](COc3ccc(NC(=O)NC(C)C)cc3C(=O)N2C)O1 | 9[16.7 µM] | -4
C[C@H](CO)N1C[C@H](C)[C@@H](CN(C)C(=O)CN(C)C)Oc2cc(Br)ccc2S1(=O)=O | 20[16.7 µM] | 6
COc1ccccc1-c1cnc2c(c1)C(=O)N([C@@H](C)CO)C[C@@H](C)[C@H](CN(C)C(=O)c1ccccc1)O2 | -4[16.7 µM] | 4
CC(C)NC(=O)N1[C@H](C#N)[C@@H](c2ccc(C#CC3CCCC3)cc2)[C@@H]1CO | -27[16.7 µM] | -16
O=C(Nc1ccccc1)N[C@H]1CC[C@H](CCNC(=O)c2ccccc2F)O[C@@H]1CO | -2[16.7 µM] | 0
Cc1noc(C)c1NC(=O)Nc1ccc2c(c1)CC(=O)N([C@H](C)CO)C[C@@H](C)[C@@H](CN(C)Cc1ccccc1)O2 | 25[16.7 µM] | -22
C[C@@H]1CN([C@@H](C)CO)C(=O)c2cc(NC(=O)Cc3ccccc3)ccc2O[C@@H](C)CCCCO[C@@H]1CN(C)Cc1ccc(C(=O)O)cc1 | 0[16.7 µM] | 1
O=C(C[C@H]1C=C[C@H](NC(=O)CN2CCOCC2)[C@H](CO)O1)NC1CCC1 | -3[16.7 µM] | -7
CCCC(=O)Nc1ccc2c(c1)OC[C@H](C)N(C)C[C@H](C)[C@H](OC)CN(C)C2=O | 0[16.7 µM] | -10
Cc1noc(C)c1NC(=O)Nc1cccc2c1O[C@H](CN(C)C(=O)Nc1c(C)noc1C)[C@@H](C)CN([C@H](C)CO)C2=O | -31[16.7 µM] | 5
C[C@@H]1CN([C@@H](C)CO)C(=O)c2cc(C#CC3(O)CCCC3)cnc2O[C@H]1CN(C)C | -13[16.7 µM] | 2
Cc1noc(C)c1NC(=O)Nc1ccc2c(c1)CC(=O)N([C@@H](C)CO)C[C@H](C)[C@H](CN(C)CC1CC1)O2 | -7[16.7 µM] | 4
C[C@@H]1CCCCO[C@H](CN(C)C(=O)NC2CCCCC2)[C@H](C)CN([C@H](C)CO)C(=O)c2cc(NC(=O)Nc3ccc(F)cc3)ccc2O1 | 1[16.7 µM] | 3
C[C@@H]1CN([C@@H](C)CO)C(=O)c2cc(-c3ccc(F)cc3)cnc2O[C@H]1CN(C)CC1CCCCC1 | 0[16.7 µM] | 9
CN1C(=O)c2cc(NS(=O)(=O)c3ccccc3Cl)ccc2OC[C@@H]2O[C@H](CC(=O)O)CC[C@@H]21 | -10[16.7 µM] | -9
Cc1noc(C)c1NC(=O)N(C)C[C@@H]1Oc2c(NS(=O)(=O)c3ccccc3)cccc2C(=O)N([C@H](C)CO)C[C@@H]1C | 20[16.7 µM] | -3
C[C@H](CO)N1C[C@H](C)[C@@H](CN(C)C(=O)c2cnccn2)Oc2ncc(-c3cccc(F)c3)cc2C1=O | 24[16.7 µM] | 3
CCCC#Cc1ccc2c(c1)O[C@H](CN(C)C(=O)C1CCCCC1)[C@@H](C)CN([C@@H](C)CO)S2(=O)=O | 19[16.7 µM] | -3
Cc1noc(C)c1NC(=O)N(C)C[C@H]1Oc2c(NC(=O)NC3CCCCC3)cccc2C(=O)N([C@@H](C)CO)C[C@@H]1C | -23[16.7 µM] | 9
C[C@@H]1CN([C@@H](C)CO)C(=O)c2cc(NC(=O)Nc3ccc4c(c3)OCO4)ccc2O[C@@H](C)CCCCO[C@H]1CN(C)S(=O)(=O)c1ccccc1 | -3[16.7 µM] | -15
C[C@H]1CN([C@@H](C)CO)C(=O)c2cc(NC(=O)CCCN(C)C)ccc2O[C@@H]1CN(C)Cc1ccccc1 | 9[16.7 µM] | -14
C[C@@H]1CCCCO[C@@H](CN(C)Cc2ccncc2)[C@H](C)CN([C@@H](C)CO)C(=O)c2cc(NC(=O)c3ccccc3)ccc2O1 | 3[16.7 µM] | 1
COc1ccc(S(=O)(=O)Nc2ccc3c(c2)C(=O)N([C@@H](C)CO)C[C@@H](C)[C@@H](CN(C)Cc2ccc(C(F)(F)F)cc2)OCCCC[C@@H](C)O3)cc1 | 49[16.7 µM] | 24
C[C@H]1CN([C@@H](C)CO)S(=O)(=O)c2ccc(C#CC3CC3)cc2O[C@@H]1CN(C)C(=O)CN(C)C | -3[16.7 µM] | 9
C[C@@H]1CN([C@H](C)CO)C(=O)c2cc(C#CC3CCCC3)cnc2O[C@H]1CN(C)C(=O)Cc1ccccn1 | 2[16.7 µM] | 13
Cc1ccc(S(=O)(=O)N[C@@H]2C=C[C@@H](CC(=O)NCCc3ccncc3)O[C@H]2CO)cc1 | 17[16.7 µM] | -10
C[C@@H]1CCCCO[C@H](CN(C)S(=O)(=O)c2cccs2)[C@@H](C)CN([C@@H](C)CO)C(=O)c2cc(N(C)C)ccc2O1 | -143[16.7 µM] | 18
COc1ccc(S(=O)(=O)Nc2ccc3c(c2)C(=O)N([C@H](C)CO)C[C@H](C)[C@@H](CN(C)S(=O)(=O)c2ccc(Cl)cc2)O3)cc1 | -3[16.7 µM] | -3
C[C@H]1CCCCO[C@H](CN(C)C(=O)C2CCCCC2)[C@@H](C)CN([C@@H](C)CO)C(=O)c2cc(NC(=O)Cc3ccccc3)ccc2O1 | -11[16.7 µM] | 7
C/C=C/c1cnc2c(c1)C(=O)N([C@@H](C)CO)C[C@@H](C)[C@H](CN(C)Cc1ccc3c(c1)OCO3)O2 | 0[16.7 µM] | -2
COCC(=O)N(C)C[C@H]1Oc2ncc(C3=CCCCC3)cc2C(=O)N([C@@H](C)CO)C[C@H]1C | -1[16.7 µM] | 6
C[C@@H]1CCCCO[C@@H](CN(C)S(=O)(=O)c2ccccc2)[C@H](C)CN([C@@H](C)CO)C(=O)c2cc(NS(=O)(=O)c3ccc(Cl)cc3)ccc2O1 | -32[16.7 µM] | 2
COc1ccc(NC(=O)N(C)C[C@H]2Oc3c(NS(C)(=O)=O)cccc3C(=O)N([C@@H](C)CO)C[C@H]2C)cc1 | 6[16.7 µM] | -9
CO[C@H]1CN(C)C(=O)c2cc(NC(=O)CC(F)(F)F)ccc2OC[C@H](C)N(CCC(F)(F)F)C[C@@H]1C | 5[16.7 µM] | -10
O=C(C[C@H]1CC[C@@H](NC(=O)Nc2ccc(C(F)(F)F)cc2)[C@H](CO)O1)NCc1cccc(F)c1 | -4[16.7 µM] | 0
CC(C)NC(=O)Nc1ccc2c(c1)C(=O)N([C@H](C)CO)C[C@H](C)[C@H](CN(C)CC1CC1)O2 | 28[16.7 µM] | 5
O=C(N[C@H]1CC[C@H](CCNC(=O)C2CC2)O[C@H]1CO)c1ccccn1 | -20[16.7 µM] | -6
O=C(C[C@H]1C=C[C@H](NC(=O)c2ccccc2)[C@H](CO)O1)Nc1ccc(-c2ccccc2)cc1 | 12[16.7 µM] | -6
COCC(=O)Nc1ccc2c(c1)C(=O)N(C)[C@@H]1CC[C@@H](CC(=O)NCc3ccccc3Cl)O[C@H]1CO2 | 0[16.7 µM] | 17
C[C@H]1CN([C@@H](C)CO)C(=O)Cc2cc(N(C)C)ccc2O[C@H]1CN(C)Cc1ccc(Oc2ccccc2)cc1 | -22[16.7 µM] | 5
COc1ccc(S(=O)(=O)Nc2ccc3c(c2)C(=O)N([C@H](C)CO)C[C@@H](C)[C@@H](CN(C)C(=O)c2ccncc2)OCCCC[C@@H](C)O3)cc1 | 9[16.7 µM] | 0
Cc1noc(C)c1NC(=O)Nc1ccc2c(c1)C(=O)N([C@@H](C)CO)C[C@H](C)[C@@H](CN(C)C(=O)Nc1c(C)noc1C)OCCCC[C@H](C)O2 | 9[16.7 µM] | -4
CCC(=O)N1C[C@H](C)[C@H](OC)CN(C)C(=O)c2cc(NC(=O)Nc3ccccc3)ccc2OC[C@@H]1C | -18[16.7 µM] | -7
C[C@@H]1CN([C@@H](C)CO)C(=O)c2cc(NC(=O)Nc3ccccc3)ccc2O[C@@H](C)CCCCO[C@@H]1CN(C)S(=O)(=O)c1cccs1 | -3[16.7 µM] | -8
Cc1ccc(S(=O)(=O)N(C)C[C@@H]2Oc3ncc(-c4ccncc4)cc3C(=O)N([C@@H](C)CO)C[C@@H]2C)cc1 | 7[16.7 µM] | 32
C[C@H]1CN([C@@H](C)CO)C(=O)c2cc(C3=CCCCC3)cnc2O[C@H]1CN(C)Cc1cccc(F)c1 | -7[16.7 µM] | 4
COc1cccc(NC(=O)N(C)C[C@@H]2Oc3cc(C#Cc4ccncc4)ccc3S(=O)(=O)N([C@H](C)CO)C[C@@H]2C)c1 | 37[16.7 µM] | -3
C[C@@H]1CCCCO[C@H](CN(C)C(=O)CCC(F)(F)F)[C@@H](C)CN([C@H](C)CO)C(=O)c2cc(NC(=O)CCCCCC(=O)Nc3ccccc3N)ccc2O1 | -12[16.7 µM] | -7
COc1cccc(NC(=O)N(C)C[C@H]2Oc3cc(-c4ccccc4F)ccc3S(=O)(=O)N([C@H](C)CO)C[C@@H]2C)c1 | 18[16.7 µM] | 4
COc1ccc(S(=O)(=O)Nc2cccc3c2O[C@H](CN(C)Cc2ccc(-c4ccccc4)cc2)[C@@H](C)CN([C@@H](C)CO)C3=O)cc1 | -29[16.7 µM] | -3
O=C(NCC[C@H]1CC[C@H](NC(=O)c2ccccc2F)[C@H](CO)O1)c1cnccn1 | 11[16.7 µM] | -11
C[C@@H]1CCCCO[C@H](CN(C)S(=O)(=O)c2ccc(Cl)cc2)[C@H](C)CN([C@@H](C)CO)C(=O)c2cc(NC(=O)Nc3ccc(F)cc3)ccc2O1 | -61[16.7 µM] | -2
O=C(Nc1ccccc1F)N[C@@H]1CC[C@H](CCNC(=O)C2CCC2)O[C@H]1CO | 8[16.7 µM] | -12
Cc1ccc(S(=O)(=O)N(C)C[C@@H]2OCCCC[C@H](C)Oc3ccc(NS(=O)(=O)c4c(C)noc4C)cc3C(=O)N([C@@H](C)CO)C[C@H]2C)cc1 | -14[16.7 µM] | -14
C[C@@H]1CN([C@H](C)CO)C(=O)c2cc(NC(=O)Nc3cccc4ccccc34)ccc2O[C@@H](C)CCCCO[C@H]1CN(C)Cc1ccncc1 | 14[16.7 µM] | 9
C[C@H](CO)N1C[C@H](C)[C@@H](CN(C)C(=O)Nc2ccccc2F)Oc2ncc(/C=C/c3ccccc3)cc2C1=O | -18[16.7 µM] | 3
C[C@@H]1CCCCO[C@H](CN(C)C(=O)Nc2ccccc2)[C@@H](C)CN([C@@H](C)CO)C(=O)c2cc(N(C)C)ccc2O1 | -32[16.7 µM] | 16
O=[N+]([O-])c1ccc(C(O)CC(O)CSc2nc(-c3ccccc3)c(-c3ccccc3)o2)cc1 (stereo not drawn) | 7[16.7 µM] | -5

Continued; it opens with the 5 that closed the last part.
Molecule | HIV Env fusion | Yeast UUG start
Cc1ccc(S(=O)(=O)N(C)C[C@@H]2OCCCC[C@H](C)Oc3ccc(NS(=O)(=O)c4c(C)noc4C)cc3C(=O)N([C@@H](C)CO)C[C@H]2C)cc1 | -14[16.7 µM] | -14
C[C@@H]1CN([C@H](C)CO)C(=O)c2cc(NC(=O)Nc3cccc4ccccc34)ccc2O[C@@H](C)CCCCO[C@H]1CN(C)Cc1ccncc1 | 14[16.7 µM] | 9
C[C@H](CO)N1C[C@H](C)[C@@H](CN(C)C(=O)Nc2ccccc2F)Oc2ncc(/C=C/c3ccccc3)cc2C1=O | -18[16.7 µM] | 3
C[C@@H]1CCCCO[C@H](CN(C)C(=O)Nc2ccccc2)[C@@H](C)CN([C@@H](C)CO)C(=O)c2cc(N(C)C)ccc2O1 | -32[16.7 µM] | 16
O=[N+]([O-])c1ccc(C(O)CC(O)CSc2nc(-c3ccccc3)c(-c3ccccc3)o2)cc1 (stereo not drawn) | 7[16.7 µM] | -5
Cc1ccc(S(=O)(=O)N(C)C[C@@H]2Oc3ccc(NC(=O)Nc4c(C)noc4C)cc3CC(=O)N([C@H](C)CO)C[C@H]2C)cc1 | 18[16.7 µM] | 14
O=C(C[C@H]1C[C@@H]2c3cc(NC(=O)C4CCC4)ccc3O[C@@H]2[C@@H](CO)O1)NCc1ccncc1 | 15[16.7 µM] | -2
C[C@H](CO)N1C[C@H](C)[C@@H](CN(C)CC2CC2)Oc2ccc(NC(=O)Cn3cnnn3)cc2CC1=O | 4[16.7 µM] | -5
C[C@@H]1CN([C@@H](C)CO)C(=O)c2cc(C3=CCCC3)cnc2O[C@@H]1CN(C)C(=O)Nc1ccc(C(F)(F)F)cc1 | 31[16.7 µM] | 1
C[C@H]1CN([C@@H](C)CO)C(=O)Cc2cc(NC(=O)Nc3cccc4ccccc34)ccc2O[C@H]1CN(C)S(=O)(=O)c1ccc(F)cc1 | 59*[16.7 µM] | -9
CCC(=O)N(C)C[C@@H]1Oc2cc(-c3ccc(F)cc3)ccc2S(=O)(=O)N([C@@H](C)CO)C[C@H]1C | -20[16.7 µM] | 13
Cc1noc(C)c1NC(=O)N(C)C[C@@H]1Oc2ccc(NS(C)(=O)=O)cc2CC(=O)N([C@H](C)CO)C[C@@H]1C | -3[16.7 µM] | -17

Part of the list above in order of SMILES length, largest number first:
Molecule | HIV Env fusion | Yeast UUG start
Cc1ccc(S(=O)(=O)N(C)C[C@@H]2Oc3ccc(NC(=O)Nc4c(C)noc4C)cc3CC(=O)N([C@H](C)CO)C[C@H]2C)cc1 | 18[16.7 µM] | 14
C[C@@H]1CN([C@@H](C)CO)C(=O)c2cc(C3=CCCC3)cnc2O[C@@H]1CN(C)C(=O)Nc1ccc(C(F)(F)F)cc1 | 31[16.7 µM] | 1
C[C@H](CO)N1C[C@H](C)[C@@H](CN(C)CC2CC2)Oc2ccc(NC(=O)Cn3cnnn3)cc2CC1=O | 4[16.7 µM] | -5

These rows are one share of the data; count on the stated rates, not on these rows.
